# Screening results deposited in PubChem BioAssay by Southern Research Institute.
# total CFTR = total CFTR protein upregulators, primary screen, cell-based, HeLa F508del-CFTR, immunofluorescence, viability (AID 1224863); Cystic fibrosis transmembrane conductance regulator (Homo sapiens); calls, or highest fold increase where a dose series was run; HeLa F508del-CFTR, immunofluorescence total CFTR, 24 h; by the record results were divided by relative cell number; some inactives read as strong as hits; 10,000 tested, 0.1% active; in the data nearly all actives have a first-pass fold increase above 1.5; a few of its hits are not listed in these tables;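 further: total CFTR protein by anti-CFTR immunofluorescence in fixed cells; first pass at 25 µM or 10 µg/mL by library and series up to twice that; 1 = untreated cells; first-pass hits also needed half or more of the cells alive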
# total CFTR fold 25 µM = further read-out of total CFTR, marked with its call; fold increase; measured here: primary screen single dose 25 uM; library dosed in µM
# total CFTR fold 10 ug/mL = second read-out of total CFTR, no call of its own (marks repeat the call); fold increase; measured here: primary screen 10 ug/mL
# total CFTR viability 25 µM = recorded beside total CFTR, whose call it bears; viability, %; measured here: primary viability 25 uM; library dosed in µM;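 0% = killed and 100% = untreated cells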
# total CFTR viability 10 ug/mL = second read-out of total CFTR, no call of its own (marks repeat the call); viability, %; measured here: primary viability 10 ug/mL;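 0% = killed and 100% = untreated cells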
# The depositor's hits bear a star; i = inactive; x = no result given; & = joins results of further samples. These rows are one share of the data. The share of hits here may be higher or lower than overall.
# Under each structure: total CFTR, total CFTR fold 25 µM, total CFTR fold 10 ug/mL, total CFTR viability 25 µM, total CFTR viability 10 ug/mL
- CC(N)Cc1ccccc1Cl (configuration not stated)
 : i, x, 0.96, x, 91
- CN1C2CCC1CC(CN)C2 (configuration not stated)
 : i, x, 0.97, x, 109
- C1=C(c2ccccc2)CCN(Cc2nc(-c3cccnc3)no2)C1
 : i, x, 1.1, x, 96
- C[C@H](N)Cc1ccccc1
 : i, 1.1, x, 100, x
- CCN(CC)CCOc1ccc(/C(=C(\Cl)c2ccccc2)c2ccccc2)cc1
 : i, 1.1&0.92, x, 103&73, x
- CN1C[C@H](C(=O)N[C@]2(C)O[C@@]3(O)C4CCCN4C(=O)[C@H](Cc4ccccc4)N3C2=O)C=C2c3cccc4[nH]cc(c34)C[C@H]21 (some centres not stated)
 : i, 1, x, 103, x
- O=C(OCc1cc(-c2ccco2)on1)C(O)(c1ccccc1)c1ccccc1
 : i, x, 0.96, x, 84
- O=C1NC(=O)C(=O)C(=O)N1
 : i, x, 1.2, x, 93
- NCCc1ccc(OC(F)(F)F)cc1
 : i, x, 1.1, x, 102
- C[C@]12CC[C@H]3[C@@H](CCC4=CC(=O)CC[C@@]43C)[C@@H]1CC[C@@H]2O
 : i, 0.95, x, 86, x
- CC(=O)[C@H]1CCC2[C@@H]3CCC4C[C@H](O)CC[C@]4(C)C3CC[C@@]21C (some centres not stated)
 : i, 0.96, x, 90, x
- O=C1C=C2C=C[C@@H]3C[C@@]2(O1)[C@H]1CCCCN31
 : i, 0.75, x, 78, x
- N[C@H]1C[C@@H]1c1ccccc1
 : i, 1, x, 99, x
- CCN(C(C)=O)c1cccc(-c2ccnc3c(C#N)cnn23)c1
 : i, 0.98, x, 108, x
- O=C(O)CCCO
 : i, 1.1, x, 101, x
- CN(C)[C@@H]1C(=O)C(C(N)=O)=C(O)[C@@]2(O)C(=O)C3=C(O)c4c(O)ccc(Cl)c4[C@@](C)(O)[C@H]3C[C@@H]12
 : i, 0.92, x, 90, x
- Fc1cccc(Cl)c1CC1CCCN1 (configuration not stated)
 : i, x, 0.95, x, 86
- O=[N+]([O-])c1cc([As](=O)(O)O)ccc1O
 : i, 0.93, x, 89, x
- C1CC2CCC1N2
 : i, x, 0.99, x, 107
- CN1CC(CNC(=O)OCc2ccccc2)CC2c3cccc4c3c(cn4C)CC21 (configuration not stated)
 : i, 0.98, x, 95, x

# More entries follow.
Structure | total CFTR | total CFTR fold 25 µM | total CFTR fold 10 ug/mL | total CFTR viability 25 µM | total CFTR viability 10 ug/mL
COC(=O)C(c1ccccc1)C1CCCCN1 (configuration not stated) | i | 0.97 | x | 97 | x
CC(C)(C)n1cc(C(=O)O)cn1 | i | x | 0.97 | x | 74
O=C(Cc1cn2ccsc2n1)N1CCN(Cc2cccs2)CC1 | i | x | 0.89 | x | 88
Brc1ccc(N2CCNCC2)nc1 | i | x | 1 | x | 92
CC(NC(C)(C)C)C(=O)c1cccc(Cl)c1 (configuration not stated) | i | 1.2&1.1&1 | x | 90&89&104 | x
C1CCC(NC2CC2)CC1 | i | x | 0.9 | x | 78
O=C(NC(O)C(Cl)(Cl)Cl)NC(O)C(Cl)(Cl)Cl (configuration not stated) | i | 1.2 | x | 99 | x
O=C1NC(=O)C2(Cc3cc([N+](=O)[O-])ccc3N3CCCCC32)C(=O)N1 (configuration not stated) | i | x | 0.97 | x | 99
CC/C(=C(\c1ccccc1)c1ccc(OCCN(C)C)cc1)c1ccccc1 | i | 0.58&1.1&0.79 | x | 59&86&83 | x
C#CCN(C)[C@H](C)Cc1ccccc1 | i | 1&1 | x | 85&90 | x
C=C1N[C@@H](Cc2ccc3[nH]cc(CCN(C)C)c3c2)CO1 | i | 0.97 | x | 94 | x
COc1ccc2c(c1)c(C(=O)OC1CCOC1=O)c(C)n2C1CC1 (configuration not stated) | i | x | 1.1 | x | 87
Clc1ccccc1CC1CCCN1 (configuration not stated) | i | x | 0.89 | x | 104
CN1C[C@H](C(=O)N[C@]2(C)O[C@@]3(O)[C@@H]4CCCN4C(=O)[C@H](Cc4ccccc4)N3C2=O)C=C2c3cccc4[nH]cc(c34)C[C@H]21 | i | 1 | x | 96 | x
CC(C)[C@@]1(NC(=O)[C@@H]2C[C@@H]3c4cccc5[nH]cc(c45)C[C@H]3N(C)C2)O[C@@]2(O)[C@@H]3CCCN3C(=O)[C@H](Cc3ccccc3)N2C1=O | i | 0.91 | x | 90 | x
CC1CC(C)CN(C2CCNCC2)C1 (configuration not stated) | i | x | 1.2 | x | 105
Oc1ccc2c3c1O[C@H]1c4[nH]c5ccccc5c4C[C@@]4(O)C(C2)N(CC2CC2)CC[C@]314 | i | 1.1 | x | 84 | x
Cc1ccccc1CC(C)N (configuration not stated) | i | x | 0.94 | x | 94
c1ccc2c(c1)OCC(C1=NCCN1)O2 (configuration not stated) | i | 1.1&1 | x | 84&85 | x
CC(C)c1cc(C(=O)O)nn1C(C)(C)C | i | x | 1 | x | 98
N#Cc1nn(-c2c(Cl)cc(C(F)(F)F)cc2Cl)c(N)c1S(=O)C(F)(F)F (configuration not stated) | i | 0.88 | x | 97 | x
CCOP(=S)(OCC)Oc1cc(C)nc(C(C)C)n1 | i | 1 | x | 97 | x
CC1(C)C(C=C(Cl)Cl)C1C(=O)OC(C#N)c1cccc(Oc2ccccc2)c1 (configuration not stated) | i | 0.94 | x | 101 | x
CC(=O)O[C@H]1CC[C@@]2(C)C(=CCC3C2CC[C@]2(C)C(=O)CCC32)C1 (some centres not stated) | i | 0.97 | x | 94 | x
O=C(O)[C@]12C[C@H]1CCN2 | i | x | 0.86 | x | 90

# Already shown: 20 of the compounds above.
Structure | total CFTR | total CFTR fold 25 µM | total CFTR fold 10 ug/mL | total CFTR viability 25 µM | total CFTR viability 10 ug/mL
CC(N)Cc1ccccc1Cl (configuration not stated) | i | x | 0.96 | x | 91
CN1C2CCC1CC(CN)C2 (configuration not stated) | i | x | 0.97 | x | 109
C1=C(c2ccccc2)CCN(Cc2nc(-c3cccnc3)no2)C1 | i | x | 1.1 | x | 96
C[C@H](N)Cc1ccccc1 | i | 1.1 | x | 100 | x
CCN(CC)CCOc1ccc(/C(=C(\Cl)c2ccccc2)c2ccccc2)cc1 | i | 1.1&0.92 | x | 103&73 | x
CN1C[C@H](C(=O)N[C@]2(C)O[C@@]3(O)C4CCCN4C(=O)[C@H](Cc4ccccc4)N3C2=O)C=C2c3cccc4[nH]cc(c34)C[C@H]21 (some centres not stated) | i | 1 | x | 103 | x
O=C(OCc1cc(-c2ccco2)on1)C(O)(c1ccccc1)c1ccccc1 | i | x | 0.96 | x | 84
O=C1NC(=O)C(=O)C(=O)N1 | i | x | 1.2 | x | 93
NCCc1ccc(OC(F)(F)F)cc1 | i | x | 1.1 | x | 102
C[C@]12CC[C@H]3[C@@H](CCC4=CC(=O)CC[C@@]43C)[C@@H]1CC[C@@H]2O | i | 0.95 | x | 86 | x
CC(=O)[C@H]1CCC2[C@@H]3CCC4C[C@H](O)CC[C@]4(C)C3CC[C@@]21C (some centres not stated) | i | 0.96 | x | 90 | x
O=C1C=C2C=C[C@@H]3C[C@@]2(O1)[C@H]1CCCCN31 | i | 0.75 | x | 78 | x
N[C@H]1C[C@@H]1c1ccccc1 | i | 1 | x | 99 | x
CCN(C(C)=O)c1cccc(-c2ccnc3c(C#N)cnn23)c1 | i | 0.98 | x | 108 | x
O=C(O)CCCO | i | 1.1 | x | 101 | x
CN(C)[C@@H]1C(=O)C(C(N)=O)=C(O)[C@@]2(O)C(=O)C3=C(O)c4c(O)ccc(Cl)c4[C@@](C)(O)[C@H]3C[C@@H]12 | i | 0.92 | x | 90 | x
Fc1cccc(Cl)c1CC1CCCN1 (configuration not stated) | i | x | 0.95 | x | 86
O=[N+]([O-])c1cc([As](=O)(O)O)ccc1O | i | 0.93 | x | 89 | x
C1CC2CCC1N2 | i | x | 0.99 | x | 107
CN1CC(CNC(=O)OCc2ccccc2)CC2c3cccc4c3c(cn4C)CC21 (configuration not stated) | i | 0.98 | x | 95 | x

# The list continues.
Structure | total CFTR | total CFTR fold 25 µM | total CFTR fold 10 ug/mL | total CFTR viability 25 µM | total CFTR viability 10 ug/mL
O=C(O)c1nn(Cc2ccc(Cl)cc2Cl)c2ccccc12 | i | 0.97 | x | 95 | x
Nc1nc(N)nc(NC2CC2)n1 | i | 1.1 | x | 89 | x
NC(=O)CS(=O)C(c1ccccc1)c1ccccc1 (configuration not stated) | i | 1.1&1.1 | x | 93&91 | x
C[C@@H]1CN(C2CCC(C#N)(c3ccc(F)cc3)CC2)CC[C@]1(C(=O)O)c1ccccc1 (some centres not stated) | i | 1.1 | x | 93 | x
CC(=O)c1c(C)[nH]c(C(=O)C(C)N2CCOCC2)c1C (configuration not stated) | i | x | 1.1 | x | 96
COc1ccc(CCNCCCSC)cc1 | i | x | 1.2 | x | 89
COc1ccc2c(c1)[C@]13CCCC[C@@H]1[C@H](C2)N(C)CC3 | i | 1&1 | x | 81&95 | x
